Screens as filed in PubChem BioAssay.
HNF4A DNA FP: change in binding of human HNF4A to DNA, primary screen, biochemical, fluorescence polarization, FITC-DNA; 1 h; activity change, % at 10 µM; hit rate 0.3% among 360,000; AID 1224865, 2016; in the data active = activity change above about 30%, passing the limit was not always enough;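 note: controls were the assay level and a saturating level of protein; the project sought stronger binding though the title names inhibitors; some compounds called inactive have numbers as strong as hits; positive values seem to mean higher polarization but the record does not say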
Target sequence (P41235 whole entry, looked up): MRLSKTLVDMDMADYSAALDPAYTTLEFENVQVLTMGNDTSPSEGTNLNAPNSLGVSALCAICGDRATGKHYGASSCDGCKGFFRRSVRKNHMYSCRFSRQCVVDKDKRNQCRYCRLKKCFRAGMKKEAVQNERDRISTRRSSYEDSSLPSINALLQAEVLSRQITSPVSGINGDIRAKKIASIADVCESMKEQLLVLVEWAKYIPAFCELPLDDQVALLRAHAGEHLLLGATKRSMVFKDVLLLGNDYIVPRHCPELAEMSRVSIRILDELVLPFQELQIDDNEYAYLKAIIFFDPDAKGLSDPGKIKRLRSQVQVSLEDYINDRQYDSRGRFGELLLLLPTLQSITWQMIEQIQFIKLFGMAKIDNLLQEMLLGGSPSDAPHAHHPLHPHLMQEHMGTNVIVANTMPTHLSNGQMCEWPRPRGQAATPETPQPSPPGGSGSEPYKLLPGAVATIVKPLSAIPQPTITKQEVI
Ecoli rRNA inh: reduced GFP signal of wild-type E. coli, primary screen, bacterial rRNA inhibitor project, GFP/RFP fluorescence, OD600, single point | hit rate 1.6% among 350,000 | GFP signal change (wild-type ribosome), % (concentration not given with the values) | AID 720706, 2013 | E. coli WT GFP vs humanized-ribosome RFP mutants, 24 h; stronger effect = lower value; DMSO median 0, no signal -100;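 active = significant combined selectivity score with lowered wild-type GFP, culture density cut under 30%, mutant RFP and density less affected; inactive = any of these conditions unmet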; note: one replicate is shown; some compounds called inactive have numbers as strong as hits
ALR inh: inhibitors of human ALR sulfhydryl oxidase, primary screen, biochemical, H2O2 detection, HRP-luminol luminescence, single point; inhibition, % (concentration not given with the values); FAD-linked sulfhydryl oxidase ALR (Homo sapiens), P55789; purified ALR, DTT oxidation; hit rate 3.8% among 290,000;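 active = mean and each replicate at 75% or more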;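 note: stock transfer was 7.5 nL into about 7.5 µL; 0% = neutral wells and 100% = wells with inactivated enzyme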
Target sequence (P55789 whole entry, looked up): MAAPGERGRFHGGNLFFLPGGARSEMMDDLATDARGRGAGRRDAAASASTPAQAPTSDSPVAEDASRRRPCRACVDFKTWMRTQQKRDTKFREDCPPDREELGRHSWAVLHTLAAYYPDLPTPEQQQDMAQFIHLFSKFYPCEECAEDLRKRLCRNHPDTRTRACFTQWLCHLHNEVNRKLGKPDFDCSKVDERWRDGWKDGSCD
Ecoli growth: E. coli growth inhibition, primary screen, OD600 | Escherichia coli growth, 23 h; stronger effect = lower value | OD600 absorbance (test concentration not listed) | hit rate 0.21% among 330,000;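 active = OD600 absorbance below the run mean of sample wells minus 3.6 SD, in any replicate, cut at about 0.56 in these data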;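 note: stock transfer was 300 nL into about 60 µL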
Beta2AR agonist: beta2AR agonists driving receptor internalization, primary screen, cell-based, FAP fluorogen, flow cytometry; response, % (concentration not given with the values); hit rate 0.43% among 340,000; AID 504454, 2011; Am2.2-beta2AR cells; reference of the scale not given here; Beta-2 adrenergic receptor (Homo sapiens), P07550;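 active = response above a set limit, near 3 SD of response in nonfluorescent compounds, cut at about 42% in these data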;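 note: stock transfer was 100 nL into about 11 µL; a reference agonist was the positive control; negative values mostly stem from fluorescent compounds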
UCH37 inh: inhibitors of human UCH37 deubiquitinase, primary screen, biochemical, Ub-AMC cleavage, fluorescence; Ubiquitin carboxyl-terminal hydrolase isozyme L5 (Homo sapiens), Q9Y5K5; inhibition, % (test concentration not listed); AID 588478, 2011; purified proteasome/UCH37; hit rate 0.33% among 330,000;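 active = mean of two replicates above 20%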;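 note: 0% = compound-free wells with enzyme and 100% = wells lacking proteasome; stock transfer was 100 nL into about 20 µL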
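assay system = human UCH37 enzyme supplied as purified proteasome complex | amount = proteasome at 0.15 nM in the dispensed enzyme solution | schedule = 30 min compound-proteasome preincubation then 25 min substrate reaction, room temperature | measured by = fluorescence, ex 355 nm, em 460 nm | benchmarks = no-proteasome wells (full inhibition) and compound-free wells (no inhibition)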
FGF22 binding: binders of human FGF22 protein, primary screen, FGF22 synaptogenesis inhibitor project, biophysical, thermal shift, single point. Fibroblast growth factor 22 (Homo sapiens), Q9HCT0. calls only at 9.99 µM. recombinant FGF22 thermal shift, SYPRO orange fluorescence; percent of sucrose octasulfate shift, DMSO zero. hit rate 1.5% among 340,000;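 active = melting point raised past a set limit in the mean and every replicate; three in four hits are not shown here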
Target sequence (Q9HCT0 whole entry, looked up): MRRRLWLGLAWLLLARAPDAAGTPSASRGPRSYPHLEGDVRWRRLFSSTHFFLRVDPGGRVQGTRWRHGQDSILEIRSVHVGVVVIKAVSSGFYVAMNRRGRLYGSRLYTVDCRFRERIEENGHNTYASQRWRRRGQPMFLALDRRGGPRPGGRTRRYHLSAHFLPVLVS
Ecoli rRNA inh OD600: also measured in Ecoli rRNA inh; calls as there; OD600 change, %; measured here: OD600 growth;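 optical density of the mix in the first replicate; 0 = DMSO median and -100 = no signal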
Ecoli rRNA inh RFP: further read-out of Ecoli rRNA inh, marked with its call; RFP signal change, %; measured here: RFP humanized mutant strains;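 first replicate; 0 = DMSO median and -100 = no signal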
An asterisk follows results filed as active; i = inactive; nt = no result given; & = joins results of further samples.

SMILES	HNF4A DNA FP	Ecoli rRNA inh	Ecoli rRNA inh OD600	Ecoli rRNA inh RFP	ALR inh	Ecoli growth	Beta2AR agonist	UCH37 inh	FGF22 binding
CCc1cccc2c(C#N)cn(CCOc3ccccc3OC)c12	-0.2	nt	nt	nt	nt	0.73	6	3.6	nt
CCCNc1nc(Cl)nc(NC(C)(C)C)n1	-0.5	nt	nt	nt	11	0.67	24	2.6	i
Cc1cc(/C=C(\C#N)C(=O)OCC(=O)N(C)c2c(N)n(Cc3ccccc3)c(=O)[nH]c2=O)c(C)n1CC(C)C	9.3	6	7	9.7	nt	nt	nt	nt	i
CCN=C1NN=C(c2ccc(C)cc2)CS1	14	-23*	-13*	-3.5*	-29	0.7	2	5.9	i
CC(=O)c1ccc(S(=O)(=O)Nc2ccc(-c3cn4c(n3)SCC4)cc2)cc1	1.2	nt	nt	nt	8	0.69	5	-0.8	nt
CC(=O)N=c1ncn(CC(COC(C)=O)OC(C)=O)c2nc[nH]c12 (stereo not drawn)	0.1	nt	nt	nt	-13	0.68	0	5.7	nt
CSc1nc(N)n2nc(-c3ccccc3)cc2n1	0.3	-24	-10	-0.1	-6	0.7	6	4.7	i
CCOC(=O)c1ccccc1NC(=O)CN1CCC(n2nnc3cc(C(F)(F)F)ccc32)CC1	-3.0	0	7	-4.8	-7	0.83	6	1.6	i
COc1ccc([C@H]2CC(=O)C=C(c3ccc(CNC(=O)OC(C)(C)C)cc3)C2)cc1	-1.4	-11	-14	-18	-9	nt	2	1.8	i
O=C(c1ccoc1)N1CCCC(N2CCN(c3cccc(Cl)c3)CC2)C1 (stereo not drawn)	-1.4	-13	-8	2.1	93*	0.69	1	1.6	i
Cc1cc(CNC(=O)C2CCC(=O)N(Cc3ccccc3F)C2)on1 (stereo not drawn)	4.0	21	15	2.3	3	0.61	2	-0.9	i
CCOC(=O)c1ccccc1NC(=O)CSc1nnc(C)c(=O)[nH]1	-0.5	5	3	-2.1	20	0.68	7	-0.6	i
N#Cc1ccc(OCc2nnc3n2CCCCC3)cc1	4.4	0	-4	-8.0	nt	0.66	2	-1.0	i
Cn1cnnc1SCC(=O)Nc1sc2c(c1C(N)=O)CCC2	-19	nt	nt	nt	nt	0.7	3	7.7	nt
O=C(NCCc1c[nH]c2ccccc12)C(=O)NCC(c1ccco1)N1CCN(c2ccccc2F)CC1 (stereo not drawn)	1.7	nt	nt	nt	-3	0.7	6	-0.1	nt
O=C(Oc1cccc(C(=S)N2CCOCC2)c1)c1cccc([N+](=O)[O-])c1	1.8	2	-9	-1.0	18	0.7	8	4.8	i
Cc1cn(C2CCCO2)c(=O)nc1N (stereo not drawn)	6.1	9	10	-1.4	nt	nt	-5	nt	i
COC(=O)N(C)C[C@H]1OCc2cn(nn2)CCCC(=O)N([C@@H](C)CO)C[C@@H]1C	1.1	0&24	-1&13	-1.0&0.7	nt	nt	nt	nt	i
CCCCCC/C=C/c1ccc([C@H]2[C@H]3C=CC[C@@H](C)[C@@H]3C(=O)N2Cc2ccccc2)c(F)c1	-2.1	8	-5	-6.3	nt	nt	9	4.0	i
CCOC(=O)c1cnn(-c2ncnc3c2oc2ccccc23)c1N	-1.9	nt	nt	nt	-11	0.76	-14	1.1	nt
Cc1ccc(C(=O)OCC(=O)N2CC(=O)Nc3ccccc32)s1	-3.9	nt	nt	nt	-30	0.69	1	4.9	nt
O=C1NC[C@H](Cc2ccccc2)N(C[C@H]2CCCN2C[C@H](Cc2ccccc2)N2C[C@H](Cc3ccccc3)N(CCc3ccccc3)C(=O)C2=O)C1=O	-0.7	-25	-41	6.3	nt	nt	12	nt	i
COc1ccccc1NS(=O)(=O)c1ccc(C)c(C(N)=O)c1	5.1	nt	nt	nt	-7	0.71	-1	2.2	nt
CCCCCN(C(=O)COC(=O)c1ccc(Br)o1)c1c(N)n(CCCC)c(=O)[nH]c1=O	-1.8	nt	nt	nt	-3	0.73	-12	-2.5	nt
CC1CN(CC(=O)NCc2ccc(F)cc2)CC(C)O1 (stereo not drawn)	-3.9	3	4	-3.7	-5	0.68	2	4.1	i
COc1ccccc1NC(=O)c1ccccc1NC(=O)c1cccs1	-0.1	-7	-3	-6.0	6	0.71	-1	0.1	i
CCC(=O)NC(=S)Nc1ccc(NC(=O)c2ccc(Br)o2)cc1	2.8	4	0	0.9	-4	0.69	-6	3.9	i
O=C(O)c1ccccc1NS(=O)(=O)c1ccc(NNC(=S)Nc2ccc(OC(F)F)cc2)c([N+](=O)[O-])c1	-3.5	-21	7	-11	nt	0.74	-4	8.7	nt
COC(=O)c1cc(CN2CCN(c3ccccc3C)CC2)ccc1O	-4.2	-46	-67	-27	7	0.68	5	-1.7	i
Cc1ccc(NC(=O)CCCSc2ccccc2)cc1S(=O)(=O)N1CCOCC1	3.3	-24*	-14*	-0.8*	nt	0.69	-7	2.1	i
Cc1cccc(-n2c(=O)cc(N3CCN(c4ccc(F)cc4)CC3)[nH]c2=O)c1	-1.2	9	6	3.1	nt	0.74	6	4.9	i
COc1cccc(CN2CCN(Cc3nc(-c4cccs4)oc3C)CC2CCO)c1 (stereo not drawn)	-1.2	8	9	2.0	2	0.68	0	-4.4	i
COc1cccc(NC(=O)Nc2ccc3c(c2)nnn3C)c1	0.8	nt	nt	nt	-10	0.72	2	-9.8	nt
CCOc1cc(CC(=O)N[C@@H](CC(C)C)c2ccccc2N2CCCCC2)ccc1C(=O)O	6.3	4	5	-0.1	24	nt	-4	1.0	i
S=c1[nH]nc(-c2ccncc2)n1/N=C/c1cccc(Cl)c1	-1.1	10	-8	-1.0	-1	nt	13	nt	i
CN(Cc1ccccc1F)C(=O)c1ccc2c(=O)n3c(nc2c1)CCC3	1.6	2	6	-1.0	nt	0.7	0	-5.0	i
CC(C)CNS(=O)(=O)c1ccc(CCC(=O)NCc2ccncc2)cc1	1.3	17	10	3.7	-13	0.71	-4	4.9	i
COC(=O)c1cccc(C(=O)N2CCCC(C(=O)c3ccccc3OC)C2)c1 (stereo not drawn)	0.5	-5	-16	-1.6	-7	0.7	-1	2.4	i
CSc1cccc(NC(=S)NN(C)C)c1	0.9	11	9	-0.2	62	0.66	-2	6.5	i
Cc1cnc(C(=O)Nc2ccc(S(=O)(=O)N(C(C)C)C(C)C)cc2)cn1	1.3	3	11	-1.2	-11	0.69	1	-7.5	i
COc1ccccc1N1C(=O)CSC1=S	-2.1	3	4	35	2	0.7	2	4.2	i
Cc1c(C(=O)O)nnn1-c1ccccc1	0.8	nt	nt	nt	5	0.77	5	1.9	nt
Cc1ccc(S(=O)(=O)Nc2c(NC3CCCCC3)c3ccccc3oc2=O)cc1C	-2.1	13	11	0.1	7	0.71	-4	-0.8	i
CC1(C(=O)NS(=O)(=O)c2ccccc2C(F)(F)F)CCN1C(=O)c1cccc(F)c1 (stereo not drawn)	1.1	12	20	-0.4	nt	nt	nt	nt	i
CC1(C)Cc2nc(-c3ccccc3)nc(SCC(=O)N3CCCC3)c2CO1	4.8	2	-2	-0.6	-4	0.64	-16	3.3	i
O=C(OC1CCOC1=O)c1cccc(S(=O)(=O)N2CCc3ccccc3C2)c1 (stereo not drawn)	3.4	9	9	3.9	9	0.7	4	1.1	i
COc1ccc(-c2noc(C3CCCN(C(=O)Nc4ccccc4F)C3)n2)cc1 (stereo not drawn)	-4.9	-36	-51	-17	nt	0.71	5	4.1	i
COc1ccc(/C=N/NC(=O)CN2CCCCCCC2)c(C)c1C	-1.8	13	4	2.1	1	nt	-1	nt	nt
CC(C)COc1ccc(N)cc1OCC(C)C	-4.3	6	20	-1.0	99*	0.68	4	0.7	i
Cc1cccc(/C(N)=N/OC(=O)C23CC4CC(CC(C4)C2)C3)c1	2.5	nt	nt	nt	nt	0.72	2	0.3	i
Oc1ccc(C[C@@H]2CNCCN2CCc2cccc(F)c2)cc1	5.3	13	13	0.5	12	nt	-3	1.2	i
Cc1cc(C)nc(SCSc2nc(C)cc(C)n2)n1	0.0	7	-3	13	nt	0.68	4	1.6	i
Cc1cc(N2Cc3ccccc3C2)ccc1C=O	-0.2	11	10	1.6	nt	0.7	7	-4.3	nt
O=C(COC(=O)/C=C/c1ccco1)Nc1ccccc1	-0.5	6	-10	2.6	23	0.7	-6	4.0	i
COc1ccc(-c2cc3ccccc3n2CC(O)CN2CCCCC2)cc1 (stereo not drawn)	1.2	-6	-8	6.2	-5	0.72	7	4.6	i
Nc1nonc1-n1nnc(C(=O)N/N=C\c2ccncc2)c1CN1CCCCC1	0.9	2	9	4.2	-15	nt	5	nt	i
Cc1cc(=O)oc2cc(NC(=O)c3ccnn3C)ccc12	2.3	nt	nt	nt	-1	0.73	9	-203	nt
COc1ccc(C(=O)NNC(=O)c2cccs2)cc1S(=O)(=O)N1CCOCC1	3.9	6	8	-0.2	3	0.69	16	0.7	i
NS(=O)(=O)c1ccc(NC(=O)CSc2nc3ccccc3c(=O)n2Cc2ccncc2)cc1	2.2	4	24	33	5	0.67	-3	0.8	i
COc1ccc(/C(C)=N/NC(=O)c2nnn(-c3nonc3N)c2-c2cccs2)cc1	2.5	9	8	1.2	-2	nt	2	nt	i

The list goes on:
SMILES	HNF4A DNA FP	Ecoli rRNA inh	Ecoli rRNA inh OD600	Ecoli rRNA inh RFP	ALR inh	Ecoli growth	Beta2AR agonist	UCH37 inh	FGF22 binding
CC(C)NC(=O)c1cc(C2CCCCN2S(=O)(=O)c2cccc3cccnc23)on1 (stereo not drawn)	-1.2	1	6	-1.4	nt	nt	nt	nt	i
CN(C)c1ccc(CNC(=O)C2CCN(S(=O)(=O)c3ccc4c(c3)CCC(=O)N4)CC2)cc1	3.7	nt	nt	nt	91*	0.72	0	6.4	nt
CCCCCOc1ccc(C(=O)CCN2CCOCC2)cc1	0.9	-4	2	1.9	nt	0.66	-1	0.2	i
CCOc1ccc2ccccc2c1C(=O)NCC(c1ccc(N(C)C)cc1)N(C)C (stereo not drawn)	0.4	3	-6	-1.8	18	0.69	4	4.0	i
O=c1[nH]c(C(F)(F)C(F)(F)C(F)(F)F)no1	-0.2	6	4	-0.3	nt	0.69	-2	-2.0	i
Cc1ccccc1OCC(=O)OC(C(=O)c1ccccc1)c1ccccc1 (stereo not drawn)	-0.6	17	17	0.7	-1	0.69	4	4.5	i
O=C(CSc1nnc2c(n1)[nH]c1ccc(F)cc12)N1CCOCC1	-1.0	18	19	3.8	nt	0.68	-3	6.8	i

Entries of single compounds, looked up by structure.
CCOc1ccc2ccccc2c1C(=O)NCC(c1ccc(N(C)C)cc1)N(C)C (stereo not drawn) as listed: HNF4A DNA FP = 0.4; Ecoli rRNA inh = 3; Ecoli rRNA inh OD600 = -6; Ecoli rRNA inh RFP = -1.8; ALR inh = 18; Ecoli growth = 0.69; Beta2AR agonist = 4; UCH37 inh = 4.0; FGF22 binding = i
O=c1[nH]c(C(F)(F)C(F)(F)C(F)(F)F)no1 as listed: HNF4A DNA FP = -0.2; Ecoli rRNA inh = 6; Ecoli rRNA inh OD600 = 4; Ecoli rRNA inh RFP = -0.3; ALR inh = nt; Ecoli growth = 0.69; Beta2AR agonist = -2; UCH37 inh = -2.0; FGF22 binding = i

An excerpt; rates above refer to the full screens.
